RN4220 kill = growth inhibition of S. aureus RN4220, primary screen, OD600; 16 h; inhibition, % (concentration not given with the values); hit rate 0.33% among 330,000;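 active = z-score of -3 or lower and OD600 up to 0.18 on both plates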;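 also: plate controls were untreated cells for no effect and reference antibiotic for full effect; stock transfer was 100 nL into about 80 µL; one replicate is shown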
PrP 5UTR inh = inhibition of PrP 5' UTR reporter expression; cell-based PrP 5' UTR mRNA reporter, plate reader; inhibition, % (concentration not given with the values); hit rate 0.35% among 340,000;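 active = every replicate at 50% or more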;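 also: 0 = median of the neutral control wells; tested in H4 reporter cells; numbers are from one replicate; inactives centre near -14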
Autofluor counter = counter-screen for toxin protease inhibitors: compound fluorescence. compound autofluorescence counterscreen, microsphere flow cytometry; stronger effect = higher value. fluorescence intensity (test concentration not listed). hit rate 3.1% among 360,000;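 active = at least 3 SD above the mean of all compounds, about 16000 in these data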;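 also: 100 nL of 1 mM stock went into each well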
ugtP null kill = growth inhibition of ugtP-null S. aureus, primary screen, RN4220 ugtP deletion, OD600 | 16 h; some inactives read as strong as hits | growth inhibition, % (concentration not given with the values) | hit rate 0.54% among 330,000 | AID 1259309, 2017;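 active = z-score under -3 and OD600 up to 0.15 on both plates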;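 also: plate controls were untreated wells for no effect and antibiotic for full effect; wells of about 80 µL received 100 nL stock; the first replicate is given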
Mtb hypoxia inh = PubChem AID 1159583; fluorescence inhibition, % (concentration not given with the values); M. tuberculosis hypoxia-regulated fluorescent reporter, fluorescence; hit rate 0.1% among 300,000;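 active = 35 to 45% if threefold the growth effect, above 45% if 1.5-fold the growth effect; inactive = the rest, general growth blockers included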;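 also: wells of about 50 µL received 100 nL stock; 0% = vehicle wells and 100% = reference inhibitor wells; whole bacteria with a GFP reporter of the hypoxia response; strong numbers were not always called active; many hits fall short of the cut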
BJeLR lethal = MLPCN primary cell-based screen for lethality selective to Ras in HRASV12 cells. AID 1554, 2009. inhibition, % (test concentration not listed). BJeLR (HRASV12) viability, CellTiter-Glo ATP luminescence, 48 h; reference of the scale not given here. hit rate 0.17% among 300,000;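 active = replicate mean above 50%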;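 also: 50 nL library stock added to about 25 µL; numbers are from one replicate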
Mtb hypoxia inh growth = also measured in Mtb hypoxia inh; calls as there; growth inhibition, %; measured here: M. tuberculosis growth (absorbance);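 0% = vehicle and 100% = reference antibiotic; read after six days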
* hit, by the source's call; / = not tested or not shown.

Molecule,RN4220 kill,PrP 5UTR inh,Autofluor counter,ugtP null kill,Mtb hypoxia inh,Mtb hypoxia inh growth,BJeLR lethal
CC(CC(=O)Nc1c(C)cc(C)cc1C)=NNC(=O)Cc1ccccc1,6.5,/,/,7,-3,-4,/
CSCC[C@H](NC(=O)[C@@H]1Cc2ccccc2CN1)C(=O)Nc1cccc(C)c1,3.6,-10,4745,1,-1,-6,10
COc1cc2cc(CN(CCN3CCCC3)C(=O)Nc3ccc(F)cc3)c(=O)[nH]c2cc1OC,5.6,2,/,2,6,3,/
COc1cc(OC)cc(C(=O)NCCSc2c[nH]c3ccccc23)c1,-0.5,-3,3499,8,0,-4,-13
Oc1ccc(-c2onc3ccc(Cl)cc23)cc1,-2.3,-25,2978,-10,11,-1,4
CCOC(=O)c1c(C)[nH]c(C(=O)COC(=O)CNS(=O)(=O)c2ccc(C)cc2)c1C,5.5,-4,3950,3,4,8,/
CC(=O)c1c(C)[nH]c(C(=O)OCC(=O)Nc2ncc(Cl)c(C)c2Cl)c1C,6.7,-6,9650,-11,-2,1,6
Cc1ccc(CSCC(=O)NCc2cccnc2)cc1,4.7,3,2404,3,13,9,-5
NC(=O)CSc1nnc(-c2ccncc2)n1CCc1ccccc1,2.4,-13,6194,10,10,-4,-5
COc1ccc(-c2cccc(C3C4C=CCC[C@@]4(C)C(=O)N3Cc3ccccc3)c2)cc1 (some centres undefined),5.9,/,/,-14,9,7,/
COc1cc(N=C(N)N=C(N)N)cc(OC)c1,1.0,-12,3952,3,11,10,-1
Cc1ccc(C(=O)O/N=C2/CC3CCC2(C)[C@@]3(C)CBr)cc1 (some centres undefined),/,-28,6075,/,/,/,-31
Cc1cc(C(=O)NC2CCCc3c2cnn3-c2ccc(C)c(C)c2)nc(C)n1 (centres undefined),2.4,-4,5688,1,1,9,2
NS(=O)(=O)c1ccc(NC(=O)C(=O)NCCC(=O)O)cc1,1.2,-6,3946,5,16,-4,4
COc1ccc(OC)c(S(=O)(=O)Nc2ccc(Oc3ccccc3)cc2)c1,3.5,3,21725*,27,1,4,12
O=C(Nc1ccc2c(c1)OCCO2)C1CCCN1S(=O)(=O)c1ccc(Cl)cc1 (centres undefined),0.7,-11,3277,0,9,1,-2
COc1cccc2cc(S(=O)(=O)c3ccccc3)c(=Nc3ccc4c(c3)OCCO4)oc12,-3.4,-17,2207,-2,1,3,-15
O=c1cc(C(F)(F)F)nc(-c2cccnc2)[nH]1,5.3,-10,2469,5,12,9,8
CCOc1cc(C=NNC(=O)c2c(-c3ccccc3)noc2C)ccc1O,3.4,/,/,9,12,4,/
COc1cccc2cc(-c3ccccc3)c(=O)oc12,5.3,-51,2546,8,4,3,0
CCOC(=O)C1(c2ccccc2)CCN(CCC(=O)Nc2cccc(Br)c2)CC1,-3.0,-32,5864,-4,17,13,/
CC(C)CCNC(=O)C1(O)c2ccccc2NC(=O)N1c1ccc(Cl)cc1 (centres undefined),-0.7,-40,3614,-5,7,-5,-2
COc1ccccc1-n1c(SCC(=O)Nc2ccc(NC(C)=O)cc2)nc2c([nH]c3ccccc32)c1=O,-0.4,-2,4756,-5,-11,-7,9
CC(C)c1nc2cc(C(=O)N(C)Cc3ccc(F)cc3)ccc2o1,2.1,-11,4438,4,2,3,-6
CC(C)Oc1ccc(C(CC(=O)O)NC(=O)C(Sc2ccccc2)c2ccccc2)cc1 (centres undefined),6.9,-11,3855,15,-3,7,2
O=C(O)C1SCCN1S(=O)(=O)c1ccc(N=NN2CCOCC2)cc1 (centres undefined),4.4,-15,3548,-6,11,5,-3
COc1ccc(NC(=O)C2CCCN(S(=O)(=O)c3cccc4nonc34)C2)cc1OC (centres undefined),5.8,-25,4593,8,14,1,-1
O=C(CN(C(=O)CCC(=O)Nc1nccs1)c1ccc(F)cc1)NCc1ccc2c(c1)OCO2,-1.4,-31,3485,2,6,4,-6
c1ccc(-c2nnc3sc(-c4cc5ccccc5o4)nn23)cc1,12,-2,8213,-25,13,9,9
CN1CCN(c2ccc(NC(=O)c3ccccc3)cc2)CC1,2.2,-43,3857,8,6,13,-5
O=C(NCc1ccccn1)C1CCN(S(=O)(=O)c2cnc[nH]2)CC1,1.9,-16,4570,-2,14,3,-12
COC(=O)C1=C(N)Oc2cc(C)n(CCCn3ccnc3)c(=O)c2C1c1cccc(Cl)c1 (centres undefined),1.1,-2,2459,-1,/,/,9
Cn1c(SCC(=O)NN=Cc2cccs2)nc2ccccc21,1.7,/,/,-4,11,5,/
COc1ccc(N(C)S(=O)(=O)c2cccc(C(=O)NC3CCCCC3C)c2)cc1 (centres undefined),8.6,-1,4238,6,7,1,-8
Cc1cc(C=NNC(=O)c2nn(C)cc2Cl)c(C)n1-c1cccc(Br)c1,1.5,/,/,10,4,5,/
CC(C)C(=O)NC(CC(=O)O)c1ccccc1 (centres undefined),4.0,-30,4556,6,-1,4,-18
CC1CC1C(=O)N(C)CC(=O)Nc1cccc(F)c1 (centres undefined),3.3,-2,5246,6,3,6,-3
COc1cc(C(=O)NC2CCCc3ccccc32)ccc1OCC(=O)Nc1ccc(F)cc1 (centres undefined),-0.4,-10,2610,3,6,0,-9
COC(C(=O)Nc1ccc(F)cc1)c1ccccc1 (centres undefined),-1.1,-21,4834,5,/,/,6
COc1cccc(C(=O)Nc2cccc(C(=O)NCC(C)C)c2)c1,4.5,-38,10253,0,7,2,-2
COc1cc2c(cc1OC)CN(C1CCC(C)CC1)CC2 (centres undefined),1.2,2,4264,3,7,11,0
CC(/C=C/c1ccc(N(C)C)cc1)=N/N=C1/NC(=O)CC(C(=O)Nc2ccc(Cl)cc2)S1 (centres undefined),0.0,-32,2275,8,10,1,-7
CC(=O)Nc1ccccc1C(=O)C(=O)Nc1cccc(Br)c1,-1.8,-23,4503,3,7,-1,4
CC(C)CC(=O)Nc1ccc2c3c(cccc13)CC2,-3.3,-3,2064,-2,7,5,-13
CCOC(=O)C(NC(=O)c1ccc(F)cc1)(Nc1nnc(C)s1)C(F)(F)F (centres undefined),1.6,-10,4345,-1,/,/,-23
COc1ccccc1N1CCN(C(=O)c2cn(C)c3ccc(S(=O)(=O)N4CCOCC4)cc3c2=O)CC1,5.7,0,5262,3,3,1,8
Cc1ccc(C(C)C)c(OCC(=O)Nc2ccc(N3CCN(S(C)(=O)=O)CC3)cc2)c1,-0.4,-10,4708,-1,6,4,/
COc1cc(/C=C/C(=O)OCC(=O)c2ccccc2)cc(OC)c1OC,5.4,-17,/,8,4,-2,/
COc1cccc(CN2CCNC(=O)C2CC(=O)NCCOc2cccnc2)c1 (centres undefined),4.3,-19,2530,5,8,3,-3
Cc1ccc(-n2nc3c(N4CCC(C(=O)N5CCCCCC5)CC4)nnc(C)c3c2C)cc1,-0.9,-1,8461,-3,8,18,-6
Oc1cc(Nc2ccccc2)cc2cccnc12,16,-16,4657,-6,-2,2,/
COc1cc(/C=C(\NC(=O)c2ccccc2)C(=O)NCCO)c([N+](=O)[O-])cc1OC,5.5,-19,2562,7,5,7,0
CCOC(=O)CSc1ccc2nnc(-c3ccccc3)n2n1,4.4,-3,5761,12,1,-2,4
N#C/C(=C\c1cccc(NC(=O)c2ccccc2Cl)c1)C(=O)NCCc1ccccc1,21,-31,2154,-6,12,5,-2
CCN(CC)S(=O)(=O)c1ccc(OCC(=O)NC(=O)c2ccccc2OC)c([N+](=O)[O-])c1,4.4,3,5285,3,6,11,-11
O=C(CSc1ncccn1)NC1CCS(=O)(=O)C1 (centres undefined),4.0,-8,4920,14,9,6,6
Cc1ccc2cc(C#N)c(NCCNC(=S)NCCCN(C)C)nc2c1C,-0.2,-4,3518,-2,5,9,12
OCCNCCSc1ccc(Cl)cc1,/,-15,2565,/,/,/,-5
COc1cccc(CNC(=O)CCC2CCCN(C(=O)c3ccc(C)nc3)C2)c1 (centres undefined),11,-3,4484,5,8,10,10
Cc1ccc(SCC(=O)NC2CC2)cc1,3.4,-15,5211,12,10,2,-1

Compounds above that contain two or more sulfur atoms, in the order listed:
Molecule,RN4220 kill,PrP 5UTR inh,Autofluor counter,ugtP null kill,Mtb hypoxia inh,Mtb hypoxia inh growth,BJeLR lethal
O=C(O)C1SCCN1S(=O)(=O)c1ccc(N=NN2CCOCC2)cc1 (centres undefined),4.4,-15,3548,-6,11,5,-3
Cn1c(SCC(=O)NN=Cc2cccs2)nc2ccccc21,1.7,/,/,-4,11,5,/
O=C(CSc1ncccn1)NC1CCS(=O)(=O)C1 (centres undefined),4.0,-8,4920,14,9,6,6

Limited to ugtP null kill and Autofluor counter (2 entries from above):
structure	ugtP null kill	Autofluor counter
Oc1cc(Nc2ccccc2)cc2cccnc12	-6	4657
COc1cc(/C=C(\NC(=O)c2ccccc2)C(=O)NCCO)c([N+](=O)[O-])cc1OC	7	2562

An excerpt from above in order of heavy-atom count, smallest number first.
Molecule,RN4220 kill,PrP 5UTR inh,Autofluor counter,ugtP null kill,Mtb hypoxia inh,Mtb hypoxia inh growth,BJeLR lethal
NS(=O)(=O)c1ccc(NC(=O)C(=O)NCCC(=O)O)cc1,1.2,-6,3946,5,16,-4,4
c1ccc(-c2nnc3sc(-c4cc5ccccc5o4)nn23)cc1,12,-2,8213,-25,13,9,9
COc1ccc(-c2cccc(C3C4C=CCC[C@@]4(C)C(=O)N3Cc3ccccc3)c2)cc1 (some centres undefined),5.9,/,/,-14,9,7,/

(more compounds)
Molecule,RN4220 kill,PrP 5UTR inh,Autofluor counter,ugtP null kill,Mtb hypoxia inh,Mtb hypoxia inh growth,BJeLR lethal
CC(C)OCC(O)CN1CCNCC1 (centres undefined),2.0,-21,6343,11,6,-1,-4
CCC(=O)Nc1ccc(Br)c(Cl)c1,-1.0,-14,4343,-11,6,0,1
CCCCN(CC)C(=O)Cc1cn(C)c2ccccc12,2.2,-17,9205,-7,5,11,-11
O=C(CCn1c(=S)oc2ccccc21)N1CCN(c2ccc(F)cc2)CC1,1.7,-28,4409,2,2,2,7
COc1ccc2nc(/C(C#N)=C\c3ccc(Oc4ccc([N+](=O)[O-])cn4)cc3)[nH]c2c1,5.6,3,3811,-7,1,18,0
Cc1ccc(C)c(OCc2ccc(C(=O)Nc3ccc([N+](=O)[O-])cn3)o2)c1,21,-5,5571,-6,3,3,/
Cc1cccc(N/C=C(\[N+](=O)[O-])S(=O)(=O)c2ccccc2)c1C,5.6,-22,4360,6,14,4,6
O=C1S/C(=C\c2ccc(Cl)cc2)C(=O)N1CCn1cnnn1,7.4,-20,2553,5,0,-2,/
O=C(O)C1CCCN(S(=O)(=O)c2ccc3c(c2)OCCO3)C1 (centres undefined),2.5,-4,4846,2,0,-3,3
C#Cc1ccc(C2C=C(C(=O)N3CCN(Cc4ccccc4)CC3)OC(OCc3ccc(CO)cc3)C2)cc1 (centres undefined),28,/,/,-27,7,8,/
COc1cc(CN2CCCC(C(=O)c3sccc3C)C2)cc(Cl)c1O (centres undefined),0.1,-22,3156,4,1,-6,-1
Cn1nc(-c2ccccc2)c(CSc2ccccc2)c1Cl,-10,-6,2452,55,17,0,7
Cc1ccc(NC(=O)CCNS(=O)(=O)c2ccc3c(c2)CCC(=O)N3)cc1C,2.4,1,5684,1,5,1,-3
O=C(CSc1n[nH]c(-c2ccncc2)n1)Nc1ccc(Cl)cc1,-1.4,10,3030,-5,-9,-6,-1
COc1ccc(C(=O)CSc2nnc(CCc3ccccc3)n2-c2ccccc2)cc1,13,9,24111*,-19,10,7,-2
Cc1c(C#N)c2ncnc(-c3ccccc3)c2n1-c1ccccc1,-0.2,-7,23956*,0,1,-3,-4
COc1ccc(CN(CC(=O)NCC2CCCO2)C(=O)CCC(=O)Nc2nccs2)cc1 (centres undefined),-2.0,-17,3677,6,7,2,6
COc1ccc(OCCN2CCN(C3CC(=O)N(CCC(C)C)C3=O)CC2)cc1 (centres undefined),4.7,-32,8841,-6,5,8,-2
CCCCNc1nc2sc3c(c2c(=O)n1-c1cccc(Cl)c1)CCN(C)C3,1.5,-1,6949,9,-8,-8,-2

This is a random part of the collection. Share with any hit: about 4%.
